High-throughput results: PubChem BioAssay, National Center for Advancing Translational Sciences (NCATS)
Six1-Eya2 inh: qHTS Assay for Inhibitors of the Six1/Eya2 Interaction; AlphaScreen GST-Six1/His-Eya2 binding, biochemical; stronger effect = lower value; control for the full effect not named in the record; activity change, % (test concentration not listed); 360,000 tested, 0.56% active; AID 651725, 2012; in the data active = activity change below about -65%; inconclusive = about -30% to -65%; inactive = above about -30%; also: % is scaled to controls: 0 for no effect and ±100 for the full control effect; compound concentration not given in the record
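GST-Six1 + His-Eya2 (5X stock: 250/500 nM); Tris pH 8.0, 300 mM NaCl, 0.05% BSA, 0.02% Tween 20; GSH donor/Ni acceptor beads; 1 h 37 °C dark; AlphaScreen readout.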
CtBP-E1A inh: qHTS Assay for Inhibitors of the CtBP/E1A Interaction | AID 651724, 2012 | 340,000 tested, 0.49% active | CtBP / adenovirus E1A interaction (AlphaScreen) | AlphaScreen GST-E1A/His-CtBP binding, 1536-well; stronger effect = lower value; control for the full effect not named in the record | activity change, % (test concentration not listed); in the data active means activity change below about -65%; inconclusive means about -30% to -65%; inactive means above about -30%; also: % is scaled to controls: 0 for no effect and ±100 for the full control effect; compound concentration not given in the record
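Protein mix (5X: 125 nM each GST-E1A, His-CtBP) was incubated with pinned compound 2 h at 37 deg C in dark, in 50 mM Tris pH 8.0 buffer with 300 mM NaCl. Glutathione donor and nickel acceptor beads followed; AlphaScreen signal read after 1 h.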
TRPV1 potentiator: HTS Assay for Compounds that Act as Potentiators of the Vanilloid Receptor 1; AID 540277, 2011; TRPV1-expressing cells, Fluo-8 calcium influx, capsaicin EC20 potentiation; host cell line not named in the record; control for the full effect not named in the record; 320,000 tested, 0.02% active; potentiation, % at 8.33 µM; active means potentiation above 80%; inconclusive means 30% to 80%; inactive means below 30%; also: 0% is about no effect
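Cells expressing TRPV1 were dye-loaded with Fluo-8 and read kinetically: 10 s baseline, 3 min after compound (agonist portion), then 2 min after EC20 capsaicin (allosteric enhancer portion). Calcium-bound dye fluorescence at 480/520 nm.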
TRPML1 agonist: qHTS for Agonists of the Human Mucolipin Transient Receptor Potential 1 (TRPML1) | TRPML1-expressing cells, Ca2+ dye fluorescence, FDSS; host cell line not named in the record; reference of the full effect not given here | activation, % (no concentration beside the values) | 410,000 tested, 0.12% active | AID 624414, 2012 | Mucolipin-1 (Homo sapiens), Q9GZU1; in the data active = activation above about 50%; inconclusive = about 30% to 50%; inactive = below about 30%; also: 0% is about no effect; the text of the record puts the active cut at 80%
Target sequence (Q9GZU1 whole entry, looked up): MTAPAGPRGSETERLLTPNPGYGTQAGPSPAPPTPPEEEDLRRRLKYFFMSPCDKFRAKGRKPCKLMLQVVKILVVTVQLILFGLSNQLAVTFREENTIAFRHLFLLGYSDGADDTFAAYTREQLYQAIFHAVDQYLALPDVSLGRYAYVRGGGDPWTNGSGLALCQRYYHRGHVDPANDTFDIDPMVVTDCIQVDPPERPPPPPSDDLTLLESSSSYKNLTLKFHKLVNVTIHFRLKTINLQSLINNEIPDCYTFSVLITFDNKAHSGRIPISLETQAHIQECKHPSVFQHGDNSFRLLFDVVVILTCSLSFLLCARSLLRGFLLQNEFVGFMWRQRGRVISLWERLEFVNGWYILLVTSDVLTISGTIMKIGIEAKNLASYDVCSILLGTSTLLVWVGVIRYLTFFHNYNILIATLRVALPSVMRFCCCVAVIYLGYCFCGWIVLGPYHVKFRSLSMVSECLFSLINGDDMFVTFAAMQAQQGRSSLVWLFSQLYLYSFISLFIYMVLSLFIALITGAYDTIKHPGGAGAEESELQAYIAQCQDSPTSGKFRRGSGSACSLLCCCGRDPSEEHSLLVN
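Cells: TRPML1-DL, 1X Tet inducer, ~16 h at 37 degrees C/5% CO2. Dye: ABD Ca8 no-wash + quencher, 45-90 min RT. Read: 10 s baseline, compound add, 110 s agonist phase; 54-4 EC80 (4uM final), 110 s antagonist phase.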
D2 PAM: Beta-Arrestin HTS for Positive Allosteric Modulators of the Human D2 Dopamine Receptor: Potentiators; DiscoveRx D2 beta-arrestin cells, luminescence, 90 min; 100% = 57 uM dopamine signal; potentiation, % (concentration not given with the values); 360,000 tested, 0.23% active; AID 624464, 2012; D(2) dopamine receptor (Homo sapiens), P14416; active = potentiation of 50% or more; inconclusive = 30% to 50%; inactive = 30% or less;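 also: compound concentration not given in the record; tested on top of an EC20 dose of dopamine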
Target sequence (P14416 whole entry, looked up): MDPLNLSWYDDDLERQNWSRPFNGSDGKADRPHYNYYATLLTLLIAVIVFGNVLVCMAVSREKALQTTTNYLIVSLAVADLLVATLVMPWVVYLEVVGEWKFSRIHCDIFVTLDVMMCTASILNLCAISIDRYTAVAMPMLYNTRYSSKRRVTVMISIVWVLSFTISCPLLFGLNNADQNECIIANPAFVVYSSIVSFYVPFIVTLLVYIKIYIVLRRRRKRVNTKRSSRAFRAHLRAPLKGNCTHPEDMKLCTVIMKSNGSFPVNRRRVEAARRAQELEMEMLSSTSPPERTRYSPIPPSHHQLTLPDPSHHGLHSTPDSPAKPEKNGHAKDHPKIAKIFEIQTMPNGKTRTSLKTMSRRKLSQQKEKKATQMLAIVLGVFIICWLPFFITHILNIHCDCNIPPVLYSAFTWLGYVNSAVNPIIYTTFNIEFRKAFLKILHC
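PathHunter D2 cells, attached overnight at 37 deg C, received compound in DMSO plus dopamine at EC20 (50 nM final) for 90 min at 37 deg C. Beta-arrestin recruitment was read as luminescence after 1 h with detection reagent at ambient temperature.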
TRPML1 blocker: qHTS for Inhibitors of the Human Mucolipin Transient Receptor Potential 1 (TRPML1) | TRPML1-inducible cells, Ca2+ dye fluorescence, FDSS; stronger effect = lower value; inhibition of EC80 agonist-evoked calcium signal | activity change, negative = inhibition, % (no concentration beside the values) | 390,000 tested, 0.02% active; in the data active means activity change below about -50%; inconclusive means about -30% to -50%; inactive means above about -30%;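 also: stimulus is agonist 54-4 at its EC80 concentration; % is scaled to controls: 0 for no effect and ±100 for the full control effect; compound concentration not given in the record; the text of the record puts the active cut at -80%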
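Tet-induced TRPML1-DL cells loaded with Ca8 no-wash calcium dye were read kinetically on FDSS. Compound addition was followed by EC80 agonist 54-4 (4 uM final); inhibition was read over 110 s.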
Starred values were filed as active, the others as inactive; ? = inconclusive; nt = no result given; & = joins results of further samples.

SMILES	Six1-Eya2 inh	CtBP-E1A inh	TRPV1 potentiator	TRPML1 agonist	D2 PAM	TRPML1 blocker
C=CCNC(=S)N1CCN(c2ncc(C(F)(F)F)cc2Cl)CC1	6.8	-2.1	-11.8	1.2	-1.2	9.5
O=C1CCC(=O)N1c1ccc(CSc2nnnn2C2CCCCC2)cc1	0.9	-0.7	-12.7	-0.8	-17.4	-19.5
CCCOc1ccc(Cc2c(Cl)nc(SC)nc2OC)cc1	51.2	32.5	-8.6	1.2	-9.0	5.8
CC(C)(C)NC(=O)CSc1nncn1NCc1cccc2ccccc12	1.6	-0.3	7.4	0.4	-4.5	-1.2
O=C(O)c1nn(CCOc2cccc(Cl)c2)c(=O)c2ccccc12	2.9	18.0	-1.6	0.8	1.2	0.0
CN(CC(=O)Nc1ccccc1F)CC(=O)Nc1ccc(F)c(F)c1F	6.0	nt	6.5	0.4	-9.4	4.5
Cc1cccc(C)c1NC(=O)Nc1nc(C(N)c2ccccc2Cl)cs1 (stereo not drawn)	-19.0	-19.2	nt	-0.3	3.9	nt
Cc1cc(/C=N/n2cnnc2)c(C)n1-c1ccc(OCc2ccccc2F)cc1	-25.7	2.2	-5.2	-0.3	0.0	3.3
O=C(c1cc2n(n1)C(C(F)(F)F)CC(c1ccco1)N2)N1CCc2ccccc2C1 (stereo not drawn)	-11.0	-6.0	5.1	1.2	-30.7	-9.7
Cc1ccccc1OC1C(=O)N(Cc2ccc3c(c2)OCO3)C1c1sccc1C (stereo not drawn)	-3.7	-0.5	-6.3	1.0	-5.5	3.1
CCOC(=O)C(CCCOc1ccc(C)cc1)C(=O)OCC	36.8	53.2	-24.4	-1.0	-10.8	-13.0
Cc1ccc(-c2noc(-c3c(C)noc3C)n2)cc1	-0.5	nt	nt	-0.4	-14.2	1.9
COc1ccc(/C=N/NC(=O)C2C3CCCCC32C)cc1OC (stereo not drawn)	-4.9	-7.6	12.3	-0.6	3.6	5.7
COc1ccc(S(=O)(=O)N2CCN(C(=O)NCc3ccccc3)CC2)cc1	-1.1	-1.6	-14.4	3.2	-0.2	28.1
C=CCSc1nc2c(cc1C#N)CCC2	17.1	21.3	10.1	1.4	-6.4	19.8

Overlap with the part before: 3 compounds, then new ones.
SMILES	Six1-Eya2 inh	CtBP-E1A inh	TRPV1 potentiator	TRPML1 agonist	D2 PAM	TRPML1 blocker
COc1ccc(/C=N/NC(=O)C2C3CCCCC32C)cc1OC (stereo not drawn)	-4.9	-7.6	12.3	-0.6	3.6	5.7
COc1ccc(S(=O)(=O)N2CCN(C(=O)NCc3ccccc3)CC2)cc1	-1.1	-1.6	-14.4	3.2	-0.2	28.1
C=CCSc1nc2c(cc1C#N)CCC2	17.1	21.3	10.1	1.4	-6.4	19.8
CCOC(=O)c1c(NC(=O)CSc2nnc(CNc3ccc(Cl)cc3)o2)sc(C)c1C	-5.6	-2.2	?	3.5	-23.4	14.0
Cc1ccc(S(=O)(=O)N2CCN(C(=O)CN3CCCC3)C2)cc1	4.8	-0.4	2.7	-0.1	-18.5	42.3
CC1CCCC(C)N1C(=O)COC(=O)c1n[nH]c(=O)c2ccccc12 (stereo not drawn)	1.0	-1.3	9.0	-0.3	-1.7	12.8
COC(=O)c1c(NC(=O)CN2C(=O)NC3(CCc4ccccc4C3)C2=O)sc2c1CCCCC2 (stereo not drawn)	4.6	4.7	4.5	10.1	-14.6	20.4
CCCCNC(=S)NNC(=O)c1sccc1C	-13.5	-7.2	12.4	-0.4	-18.0	4.1
Cc1csc(SCC(=O)Nc2ccccc2C)n1	1.5	-2.8	-2.3	-0.3	-23.3	13.9
Cc1ccc(S(=O)(=O)n2nc(C)c(Br)c2C)c(C)c1C	11.9	9.7	3.7	-1.7	26.7	-14.5
CCOP(=O)(c1ccc(N(C)C)cc1)C(O)c1ccccc1 (stereo not drawn)	17.7	13.7	3.3	-0.5	-8.6	-0.3
CCCCn1c(C2CCCCC2)nc2cc3[nH]c(=O)c(C(C)C)nc3cc21	-3.9	-1.0	-3.9	-0.1	-6.2	-14.2
CCOc1ccc(CNCCCSc2ncccn2)cc1	-0.3	1.6	2.3	0.2	-10.2	-5.4
CCNCC(=O)N1c2ccccc2CCc2ccc(NC(C)=O)cc21	-3.2	0.0	?	0.3	-11.4	5.7
CCc1nc2c(OCCn3cccc3)cccn2c1N(C)C(=O)c1ccco1	-3.9	-3.2	nt	-0.8	-1.9	nt
CCOC(=O)c1c(NC(=O)C2CCN(S(=O)(=O)c3cccs3)CC2)sc(C)c1C	-7.9	0.4	-2.4	-0.4	-5.5	22.8
Cc1ccc(C(=O)n2nc(-c3ccco3)nc2N)cc1	9.1	-15.8	0.4	0.6	-0.9	28.1
CC1(C)CC(=O)C2=C(C1)OC(N)=C([N+](=O)[O-])C2c1ccc(C#N)s1 (stereo not drawn)	0.9	0.6	8.6	1.5	-10.0	8.6

Some of these compounds in order of the CtBP-E1A inh value, lowest first:
molecule,CtBP-E1A inh
COc1ccc(/C=N/NC(=O)C2C3CCCCC32C)cc1OC (stereo not drawn),-7.6
C=CCNC(=S)N1CCN(c2ncc(C(F)(F)F)cc2Cl)CC1,-2.1
COC(=O)c1c(NC(=O)CN2C(=O)NC3(CCc4ccccc4C3)C2=O)sc2c1CCCCC2 (stereo not drawn),4.7

Next part
SMILES	Six1-Eya2 inh	CtBP-E1A inh	TRPV1 potentiator	TRPML1 agonist	D2 PAM	TRPML1 blocker
Cc1ccc(NC(=O)COC(=O)CCc2c[nH]c3ccccc23)cc1[N+](=O)[O-]	?	?	?	6.2	1.2	9.8
CC(C)C[C@@H](C(=O)NCC1CCCO1)N1C(=O)N2CCc3c([nH]c4ccccc34)[C@@]2(C)C1=O (stereo partly drawn)	-5.4	-2.8	-7.8	nt	-18.2	nt
COc1ccccc1CNC(=O)C1CCC(CNS(=O)(=O)c2ccccc2)CC1 (stereo not drawn)	1.2	0.4	-3.4	0.9	-1.0	-25.7
CCN(C(=O)COC(=O)CCC(=O)c1cccs1)c1ccccc1	5.6	-10.8	nt	2.1	-1.2	-23.3
c1ccc(-c2nc(-c3cccnc3)cs2)cc1	-5.2	nt	-16.1	-0.3	-8.7	14.9
COc1ccc(NC(=O)[C@@H](NC(=O)N2C[C@H]3C[C@@H](C2)c2cccc(=O)n2C3)C(C)C)cc1OC	0.7	-1.2	-3.2	nt	-31.4	nt
Nc1cc2c(cc1C(=O)c1ccccc1)OCCO2	-22.2	-16.2	-3.0	-1.0	13.5	-4.6
O=[N+]([O-])c1ccc2c(c1)C(N1CCOCC1)/C(=C/COc1ccc3ccccc3c1Br)O2 (stereo not drawn)	-23.0	-11.5	-5.5	0.6	-9.5	17.2
Cc1ccc(C)c(Cn2nnc3c(=O)[nH]c(C4CCN(S(=O)(=O)c5ccc(S(=O)(=O)N(C)C)cc5)CC4)nc32)c1	-26.2	-1.5	15.4	0.2	-7.0	2.0
CCOC(=O)c1c(C)n(OC)c2ccc3c(no[n+]3[O-])c12	-0.9	2.6	2.8	-0.2	-12.1	-9.5
CSc1cc(-c2ccc(Cl)cc2)c(C(=O)N2CCCC2)s1	5.0	2.0	-9.0	1.3	-0.1	5.8
Cc1cc(Cl)c(S(=O)(=O)N2CCN(c3ccccc3)CC2)cc1OCC(N)=O	-0.3	-3.2	6.9	-1.0	-7.4	0.1
COc1ccc(CSCC(=O)NN=C2CCN(C)CC2)cc1	3.1	4.7	-0.8	-0.6	9.1	7.8
CCN(CCCCCCN)c1ccc2c(=O)[nH][nH]c(=O)c2c1	-0.6	0.0	21.0	-0.9	-12.0	-10.6
O=C(O)C(=O)/C(=C\c1ccc([N+](=O)[O-])cc1)c1ccc2ccccc2n1	0.2	nt	11.2	1.2	-2.4	-6.0
O=C(NCCCN1CCCCC1)c1ccc2c(c1)ncn2C1CCCC1	4.1	4.0	-13.3	1.6	-24.5	-0.2
COc1ccc(-c2nc(CS(=O)CC(=O)NCc3ccc4c(c3)OCO4)c(C)o2)cc1OC (stereo not drawn)	2.2	-15.1	0.1	1.1	-6.1	21.7
Nc1ncnc2c1cnn2-c1ccccc1	-8.2	7.2	-12.8	-0.5	-15.3	9.1
Cc1nn(CC(=O)Nc2ccc(Cl)c(S(=O)(=O)N(C)C)c2)c(C)c1[N+](=O)[O-]	1.1	-2.9	11.9	-0.6	-3.4	2.2
CCCCCCCCNS(=O)(=O)CCNCc1ccccc1	22.1	19.8	nt	-1.0	-12.4	-4.2
COc1ccc2oc(C(=O)OCC(=O)N3CC(C)OC(C)C3)c(C)c2c1 (stereo not drawn)	-12.1	-23.4	13.2	1.2	-17.2	-4.4
O=C1C(Cl)=C(N2CCOCC2)C(=O)N1c1ccccc1F	-16.1	-6.2	-1.7	0.1	0.9	0.3
CCCCN(CC)CCNC(=O)c1nn(-c2ccc(OC)cc2)c(=O)c2c1c1ccccc1n2C	-0.3	-24.7	-5.3	2.0&3.7	-18.2	-13.7&-16.3
COc1ccc2c(C)cc(SCC(=O)Nc3cc(C(N)=O)cc(C(N)=O)c3)nc2c1	?	-14.5	?	1.3	0.5	4.7
COc1ccc(-c2[nH]c(-c3ccccc3)nc2SCC(=O)Nc2nccs2)cc1	-2.9	-25.7	9.4	-0.2	-6.6	0.4
Cn1nc(C(=O)NCCCN2CCCCC2)c2c1-c1ccccc1SC2	2.7	nt	1.1	0.1	-12.6	6.0
COc1ccc(CC(=O)N/N=C(\C)CC(=O)Nc2ccc(N(C)C)cc2)cc1OC	-1.8	-6.3	3.2	0.2	-1.9	55.6
O=c1c(-n2cncn2)c[nH]n1-c1cccc(Cl)n1	7.1	6.0	3.6	0.2	-0.5	6.2
Cc1cc([N+](=O)[O-])nn1Cn1nc([N+](=O)[O-])cc1C	4.0	nt	-1.4	1.2	-10.2	-13.8
O=C(Nc1ccc(S(=O)(=O)N2CCCCC2)cc1)C1CCCN(C(=O)c2ccc(Cl)cc2)C1 (stereo not drawn)	-6.8	-6.6	-10.6	2.3	-8.2	-1.2
Cc1[nH]nc2c1C(c1cccc(O)c1)C1=C(CC(C)(C)CC1=O)N2 (stereo not drawn)	8.4	-0.1	2.0	0.3	2.6	-5.7
CCn1c(SCc2cc(=O)[nH]c3ccccc23)nc2c1c(=O)n(C)c(=O)n2C	-2.1	1.8	nt	3.2	-2.4	9.8
CC(C)c1ccccc1OCC(=O)Nc1ccccc1C(=O)N1CCOCC1	0.1	6.3	-5.3	2.0	-5.8	1.3
COc1ccc(CCN(C)C2CCCN(S(C)(=O)=O)C2)cc1OC (stereo not drawn)	12.6	nt	-6.0	0.5	-25.6	-18.2
